# TRPV1 PAM: human TRPV1 potentiation; Q8NER1; TRPV1-expressing cells, Fluo-8 calcium influx, capsaicin EC20 potentiation; host cell line not named in the record; control for the full effect not named in the record; potentiation, % at 8.33 µM; 320,000 tested, 0.02% active; AID 540277; active means potentiation above 80%; inconclusive means 30% to 80%; inactive means below 30%; also: 0% is about no effect
# Target sequence (Q8NER1 whole entry, looked up): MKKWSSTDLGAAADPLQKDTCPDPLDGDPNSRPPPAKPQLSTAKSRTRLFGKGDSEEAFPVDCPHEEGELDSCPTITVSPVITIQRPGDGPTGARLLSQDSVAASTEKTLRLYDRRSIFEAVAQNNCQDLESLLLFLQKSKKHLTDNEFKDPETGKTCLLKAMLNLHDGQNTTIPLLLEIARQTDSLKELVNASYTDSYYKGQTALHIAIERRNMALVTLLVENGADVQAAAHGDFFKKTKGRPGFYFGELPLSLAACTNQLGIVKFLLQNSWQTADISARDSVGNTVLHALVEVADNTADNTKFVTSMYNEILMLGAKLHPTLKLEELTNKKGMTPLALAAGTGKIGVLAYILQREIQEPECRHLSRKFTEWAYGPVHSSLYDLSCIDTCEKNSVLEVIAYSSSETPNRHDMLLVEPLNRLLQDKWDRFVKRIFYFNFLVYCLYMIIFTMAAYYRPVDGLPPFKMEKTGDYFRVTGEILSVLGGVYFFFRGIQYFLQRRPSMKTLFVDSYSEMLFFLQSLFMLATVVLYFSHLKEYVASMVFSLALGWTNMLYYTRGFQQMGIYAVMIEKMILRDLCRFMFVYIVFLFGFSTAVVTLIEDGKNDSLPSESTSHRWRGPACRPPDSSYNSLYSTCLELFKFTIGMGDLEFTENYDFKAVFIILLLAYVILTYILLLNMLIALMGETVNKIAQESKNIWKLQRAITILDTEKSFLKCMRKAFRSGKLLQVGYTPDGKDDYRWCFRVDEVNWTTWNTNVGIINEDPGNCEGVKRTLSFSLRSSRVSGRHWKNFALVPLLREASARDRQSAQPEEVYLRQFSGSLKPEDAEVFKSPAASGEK
#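 Fluo-8 calcium influx in TRPV1-expressing cells, kinetic read (ex 480/em 520 nm). Compound added and read 3 min for agonist activity, followed by capsaicin at EC20 final and 2 min further read for enhancement.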
# gsp ag: gsp mutant agonism. gsp mutant cells, cAMP HTRF, 30 min; control for the full effect not named in the record. Potency, µM (doses to about 76.9 µM), without a hit: at the highest dose activation (cAMP increase), usual class: activators. 340,000 tested, 0.13% active. AID 624287; active = well fitted activation curve with a large enough effect; inconclusive = small, poorly fitted or top-dose-only effect, or another doubt; inactive = no such curve, though single readings can be large or run the other way; cell line not stated here;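 also: phosphodiesterase inhibitor Ro 20-1724 added with compounds to block cAMP breakdown; potency is read from the fitted curve at half-maximal effect; nearly all actives have a fitted effect of over 60% in size; about a fifth of the inactives were tested at one dose only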
#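 Cells stably selected in G418 were plated at 2000/well, grown 16-24 hr, then given compounds in DMSO with the PDE inhibitor […] (300 uM solution added) for 30 min at 37C; cAMP was read by HTRF.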
# ClpP mod: qHTS Assay for Activators of ClpP. Potency, µM (highest dose often 57.5 µM), for inactives: top-dose activity change, negative = active. 340,000 tested, 1.9% active. AID 651965, 2013. purified B. subtilis ClpP, FRET peptide cleavage, 20 min; active = well fitted falling curve with a large enough effect; inconclusive = small, poorly fitted or top-dose-only effect; inactive = no such curve, though single readings can be large or run the other way; also: potency is read from the fitted curve at half-maximal effect; the source files actives as falling curves though it sought activators and does not explain the sign; nearly all actives have a fitted effect of over 65% in size; many hits overshoot -100%
# Target sequence (P80244 whole entry, looked up): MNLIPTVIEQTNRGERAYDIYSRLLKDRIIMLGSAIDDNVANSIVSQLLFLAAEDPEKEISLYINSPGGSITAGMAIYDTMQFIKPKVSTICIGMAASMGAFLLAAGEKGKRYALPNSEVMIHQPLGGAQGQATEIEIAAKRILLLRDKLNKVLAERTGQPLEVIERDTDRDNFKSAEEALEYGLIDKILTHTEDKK
#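 Buffer: 100 mM Tris/HCl pH8, 100 mM KCl, 0.05% low protease BSA, 2.5% glycerol, 0.01% Tween-20. ClpP 10 microg/mL final; 20 min RT; delta FRET normalized to ADEP and DMSO controls.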
# TRPML1 inh: human mucolipin-1 channel inhibition; Q9GZU1; TRPML1-inducible cells, Ca2+ dye fluorescence, FDSS; stronger effect = lower value; inhibition of EC80 agonist-evoked calcium signal; activity change, negative = inhibition, % (concentration not given with the values); 390,000 tested, 0.02% active; AID 624415; in the data active means activity change below about -50%; inconclusive means about -30% to -50%; inactive means above about -30%;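 also: stimulus is agonist 54-4 at its EC80 concentration; % is scaled to controls: 0 for no effect and ±100 for the full control effect; compound concentration not given in the record; the text of the record puts the active cut at -80%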
#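 TRPML1-DL cells, Tet-induced overnight (~16 h, 37 °C) at 1,500 cells/well, were loaded with Ca8 no-wash dye plus quencher for 45-90 min at room temperature. Compounds were pinned during FDSS kinetic reading; agonist 54-4 at EC80 (4 uM final) then added.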
# gsp antagonist: antagonizes gsp, the McCune-Albright syndrome mutation | gsp-mutant cells, cAMP HTRF, 30 min; control for the full effect not named in the record | Potency, µM (titrated, usually from 76.9 µM), inactives show at the highest dose activity change, negative = inhibition, most hits filed as inhibitors | 340,000 tested, 0.4% active; active = falling curve of any shape with a large fitted effect; inconclusive = falling curve, mostly with a smaller effect; inactive = flat or rising curve; cell line not stated here;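 also: intracellular cAMP measured with PDE inhibitor Ro 20-1724 present during compound exposure; potency is read from the fitted curve at half-maximal effect; % is scaled to controls: 0 for no effect and ±100 for the full control effect; nearly all actives have a fitted effect of over 65% in size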
#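 HTRF cAMP read-out (cAMP-d2 plus anti-cAMP antibody-K in lysis buffer, 30 min RT). Before lysis, cells are exposed to compounds with […] for 30 min at 37C in DPBS containing Ca/Mg, BSA and Tween 20.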
# Menin-MLL FL inh: menin-MLL binding inhibition, fluorescein peptide | 290,000 tested, under 10 active | Fluorescence polarization, fluorescein-MLL peptide displacement from menin | FP activity change, % at 61.4 µM; inconclusive = falling polarisation curve, or a change in total fluorescence; inactive = total fluorescence flat and polarisation flat or rising; no compound was filed as active; the % refers to the polarisation; negative = inhibition;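 also: % of control where 0% means no effect; inhibitors lower the polarisation; unlabelled MLL peptide was the positive control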
# Sfp PPTase inh: inhibitors of Bacillus subtilis Sfp phosphopantetheinyl transferase; Q9F4F7; Biochemical Sfp PPTase activity, qHTS; Potency, µM, without a hit: max response, negative = inhibition, actives largely listed as inhibitors; 310,000 tested, 3.5% active; active = well fitted inhibition curve with a large enough effect; inconclusive = small, poorly fitted or top-dose-only effect, or another doubt; inactive = no such curve, though single readings can be large or run the other way;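 also: the enzyme is Sfp with the accession as filed and its product quenches rhodamine fluorescence; potency is read from the fitted curve at half-maximal effect; 0% = enzyme reaction without inhibitor and -100% = no enzyme wells; top concentration of the series not given in the record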
#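 Sfp 15 nM + cpd, 15 min RT; start w/ rhodamine-CoA 5 uM, BHQ-2-YbbR 12.5 uM (final); 50 mM Hepes pH 7.6, 10 mM MgCl2, 0.01% NP-40, 0.01% BSA; read 525/598 nm at 0 and 30 min.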
# The depositor's hits bear a star; ? = inconclusive; / = not tested or not shown; [ ] = dose if it differs, or a comment.
cpd	canonical_smiles	TRPV1 PAM	gsp ag	ClpP mod	TRPML1 inh	gsp antagonist	Menin-MLL FL inh	Sfp PPTase inh
1	CCNC(=S)Nc1ccc(OCc2nc3ccccc3s2)cc1	2	-8%[15.4 µM]	0.2%	-15	6%	2.0	20µM*
2	CCN1C(=O)/C(=C/c2cnn(C)c2C)SC1=S	-4	/	/	/	/	0.0	16%
3	CC(=O)OC(C(=O)N1CCN(c2ccc(F)cc2)CC1)c1ccccc1 (stereo not given)	11	-42%[inhibitor]	-2.8%	-13	1%	-0.3	8%
4	CSc1nnc(NC(=O)c2cc(=O)c3cc(C)cc(C)c3o2)s1	13	-12%[15.4 µM]	-0.5%	-5	-7%	-2.5	-11%
5	COc1cc(-c2c(C#N)c(N)nc3c2c(C)nn3-c2ccc(C)c(C)c2)cc(OC)c1OC	9	26%	25µM*	-4	1%	?	-19%
6	CN1/C(=C/C=N/n2cnnc2)C(C)(C)c2ccccc21	?	0%	-15%	-4	3%	-4.0	-13%
7	CCc1ccc(C(=O)NNc2ccc(Cl)cc2)cc1	-27	-15%	-0.3%	-23	-1%	-4.7	14%
8	Nc1ccc2nc(CN3CCOCC3)[nH]c2c1	-7	-58%[inhibitor]	?	9	-7%	-2.4	-29%
9	NCCCC[C@@H]1NC(=O)c2cc([N+](=O)[O-])cc(I)c2SC[C@@H](C(=O)NCC(N)=O)NC(=O)CNC1=O	1	10%	-3.4%	-11	-6%	6.1	26%
10	COc1ccc2c(c1)CC(C)C/C2=N\NC(=O)c1ccco1 (stereo not given)	-2	-2%[15.4 µM]	/	9	2%	0.8	10%
11	COc1ccccc1C1C2=C(CC(C)(C)CC2=O)Nc2nnnn21 (stereo not given)	4	-12%	-17%	2	4%	-0.3	6%
12	CC1Cc2ccccc2N1C(=O)CSc1nnc2c(n1)[nH]c1ccc(F)cc12 (stereo not given)	-2	0%	-0.5%	6	-20%	2.0	-28%
13	COc1ccc(S(=O)(=O)Cc2ccc(C(=O)NCc3ccccc3)o2)cc1	?	?	-0.2%	4	-12%	0.6	18%
14	COc1ccc(OCc2nnc(SCC(=O)NNC(=O)c3ccc(C)cc3)n2C)cc1	4	7%	3.8%	18	6%	-1.6	25%
15	CC(C)Oc1ccc(Cn2c(-c3ccco3)n[nH]c2=S)cc1	24	-5%	28µM*	1	?	9.1	?

# No new results follow: entries from further up.
cpd	canonical_smiles	TRPV1 PAM	gsp ag	ClpP mod	TRPML1 inh	gsp antagonist	Menin-MLL FL inh	Sfp PPTase inh
14	COc1ccc(OCc2nnc(SCC(=O)NNC(=O)c3ccc(C)cc3)n2C)cc1	4	7%	3.8%	18	6%	-1.6	25%
15	CC(C)Oc1ccc(Cn2c(-c3ccco3)n[nH]c2=S)cc1	24	-5%	28µM*	1	?	9.1	?

# (next part)
cpd	canonical_smiles	TRPV1 PAM	gsp ag	ClpP mod	TRPML1 inh	gsp antagonist	Menin-MLL FL inh	Sfp PPTase inh
16	CN(C)S(=O)(=O)c1ccc(N2CCCC2)c(C(=O)NC2CCCCC2)c1	-6	2%[15.4 µM]	/	4	3%	/	/
17	C=CC[n+]1c(-c2ccc(OC)cc2)csc1NNC(=O)Nc1ccccc1	5	-2%	0.4%	3	-22%	0.9	50µM*
18	COc1ccc(OC)c(-c2csc(NC(=O)CSc3ccc(Br)cc3)n2)c1	-19	-17%	-2.5%	23	-16%	1.9	17%
19	CCOC(=O)c1ccc(NC(=O)Cc2cccs2)cc1	-13	-6%	-2.6%	-14	-11%	3.7	0%
20	COc1cc(NC(=O)c2ccc(Cl)cc2)c(OC)cc1NC(=O)CN1CCOCC1	-6	3%	0.5%	-5	-15%	-2.8	-1%
21	Cc1oc2cc([N+](=O)[O-])c(O)c([N+](=O)[O-])c2c1C(=O)c1ccc(Br)cc1	2	-5%	/	28	4%	5.4	?
22	CCc1[nH]c(=O)c(C#N)c2c1CCCC2	7	-22%	?	35	13%	-2.5	8%
23	CCOC(=O)C1=C(Cn2cnc3ccccc32)NC(=O)NC1c1cc(C)ccc1C (stereo not given)	21	-2%	-3.2%	-7	-12%	0.1	-3%
24	CNc1nc(C)nc(-c2ccccc2O)n1	/	4%	0.6%	11	1%	-0.5	18%
25	Cc1cc(NC(=O)c2ccc(COc3ccccc3Cl)o2)no1	5	25%	/	-6	9%	-0.9	13%
26	CCN(CC)C(=O)C1=C(C)N(CCCOC)C(=O)C(CC(=O)NCc2cccc3ccccc23)C1 (stereo not given)	/	-37%[inhibitor]	0.4%	16	/	/	/
27	COc1ccc(C(=O)NCC(c2ccco2)N2CCc3ccccc32)c(OC)c1 (stereo not given)	-1	2%	-0.7%	26	-20%	/	/
28	CCSc1nc2c(c(=O)n(C)c(=O)n2C)n1Cc1ccc(Cl)cc1	/	-1%	1.3%	-7	15%	/	/
29	COc1ccc(CN(Cc2ccccn2)S(=O)(=O)c2ccc(-n3cnnn3)c(OC)c2)cc1	-5	24%	-1.1%	-14	-18%	0.7	4%
30	CC(=O)N1c2ccc(S(=O)(=O)NCCC(=O)NCCc3ccc(C)cc3)cc2CC1C (stereo not given)	6	0%	-2.3%	9	-8%	-0.1	-1%

# Another view of some results above.
# The line under a structure holds: TRPV1 PAM	gsp ag	ClpP mod	TRPML1 inh	gsp antagonist	Menin-MLL FL inh	Sfp PPTase inh
(16) CN(C)S(=O)(=O)c1ccc(N2CCCC2)c(C(=O)NC2CCCCC2)c1
  -6	2%[15.4 µM]	/	4	3%	/	/
(22) CCc1[nH]c(=O)c(C#N)c2c1CCCC2
  7	-22%	?	35	13%	-2.5	8%
(30) CC(=O)N1c2ccc(S(=O)(=O)NCCC(=O)NCCc3ccc(C)cc3)cc2CC1C (stereo not given)
  6	0%	-2.3%	9	-8%	-0.1	-1%

# (continued)
cpd	canonical_smiles	TRPV1 PAM	gsp ag	ClpP mod	TRPML1 inh	gsp antagonist	Menin-MLL FL inh	Sfp PPTase inh
31	CCOC(=O)N1CCN(C(=O)/C(=C/c2cccs2)NC(=O)c2ccc(OC)c(OC)c2)CC1	-3	52%[15.4 µM]	/	-7	-13%	/	-3%
32	CC(C)(C)c1ccc(C(=O)N/C(=C\c2ccco2)C(=O)O)cc1	-2	-4%[15.4 µM]	/	-3	9%	4.8	-9%
33	CCC(C(=O)Nc1ccc(C(=O)Nc2ccccc2C(=O)O)cc1)c1ccccc1 (stereo not given)	-6	39%	-1.6%	49	?	/	5%
34	CCN(CC)c1ccc(NC(=O)CCCCC(=O)Nc2ccc(N(CC)CC)cc2)cc1	/	-7%	-0.3%	15	-8%	/	/
35	CC1CCC(NC(=O)c2cc3c(s2)CS(=O)(=O)C3)CC1 (stereo not given)	-5	5%	1.6%	-6	5%	1.3	4%
36	O=C(Nc1ccc2c(c1)CCC2)c1cnn2c1NC(c1ccco1)CC2C(F)(F)F (stereo not given)	-4	-7%	-4.0%	2	3%	24	-18%
37	CC1CC(=Cc2ccc(N)cc2)C(=O)O1 (stereo not given)	/	-18%	/	-1	-4%	/	/
38	CCCCNC(=O)C(C#N)c1nc2ccccc2nc1N1CCN(c2ccccc2F)CC1 (stereo not given)	-10	28%	-4.1%	1	10%	?	18%
39	O=C(CSc1ncnc2c1oc1ccccc12)Nc1cccc(Cl)c1	-9	?	0.6%	16	17%	2.5	-17%
40	N#Cc1ccc(CSc2nnc(-c3cccc(S(=O)(=O)N4CCCCC4)c3)o2)cc1	30	25%	1.2%	4	-1%	-6.3	4%
41	Cc1cc(C)nc(Sc2ccc3nnc(C(F)(F)C(F)(F)C(F)(F)F)n3n2)n1	0	-4%	1.3%	-14	-1%	-3.1	4%
42	Cc1ccc(C2CC(=O)Oc3cc(C)c(Br)c(C)c32)cc1 (stereo not given)	/	/	-1.8%	15	2%	1.1[94.6 µM]	-16%
43	Cn1cc(-c2ccccc2C(=O)O)c(=O)c2ccccc21	12	30%	3.0%	3	8%	-3.0	23%
44	CCN(CC)c1nc(N)nc(N(c2ccccc2)c2ccccc2)n1	10	0%	-3.0%	-2	-6%	2.4	-7%
45	Cc1ccc(N2CCN(C(=O)NC3CCCCC3)CC2C)cc1 (stereo not given)	-11	13%	0.6%	/	10%	4.0	6%
46	Cn1nccc1C(=O)NC(=S)Nc1cc(Cl)cc(Cl)c1	-4	-3%[15.4 µM]	-1.5%	-4	-13%	/	-82%
47	COc1cc(C(=O)NCC(=O)N/N=C\C(C)=C/c2ccccc2)cc(OC)c1OC	17	-20%[15.4 µM]	/	18	-5%	/	4%
48	CC(=O)Nc1ccc(-c2nc3ccc(NC(C)=O)cc3o2)cc1	1	20%	3.5%	/	0%	1.0	24%
49	Cc1cc(O)c(-c2cc(C(=O)NCCc3ccc(S(N)(=O)=O)cc3)[nH]n2)cc1C	11	27%[15.4 µM]	/	3	-7%	2.4	10%
50	CCCc1cc(=O)[nH]c(SCC(=O)Nc2cccc(S(=O)(=O)N3CCCCC3)c2)n1	13	-33%[inhibitor]	0.6%	41	-29%	/	/
51	CN(C)S(=O)(=O)c1ccc(N2CCCC2)c(C(=O)NCc2cccc(C(F)(F)F)c2)c1	-3	0%	156%	-4	27%	-0.6	22%
52	CC1CCc2c(nc3ncnn3c2NCCc2ccccc2F)C1 (stereo not given)	12	48%	/	-4	-8%	0.0	3%
53	O=C(C1CCCCC1)N1CCN(c2nc(-c3ccc(F)cc3)cs2)CC1	-7	-13%[15.4 µM]	/	-7	?	2.8	-5%
54	CCOc1ccccc1N(CC(=O)NC(C)(C)C)C(=O)CCC(=O)Nc1nccs1	-7	-19%	-1.1%	53	-3%	-1.9	19%
55	Cc1ccc(S(=O)(=O)Nc2ccc(C(=O)Nc3cc(C)on3)cc2)cc1	-16	-75%[inhibitor]	?	0	10%	2.9	14%
56	Cc1cccc2cc3cccc(C)c3nc12	17	2%	-20%	0	-10%	-13	-9%
57	Cc1ccc2nc(-c3cccc(S(=O)(=O)N4CCCC4)c3)cn2c1	-3	8%	-24%	2	-27%	6.4	13%
58	COc1ccc(CN2CCN(C(=O)c3ccc(-c4ccccc4)cc3)CC2)c(OC)c1OC	-14	-8%	/	-5	5%	-1.7	12%

# Bioassay records: PubChem BioAssay, National Center for Advancing Translational Sciences (NCATS)
